# Source: PubChem (Broad Institute)
# Tg IFNy HTS – T. gondii growth inhibition with IFN-gamma, primary screen, cell-based; Toxoplasma gondii growth in IFN-gamma-treated host cells; stronger effect = lower value; reference of the scale not given here; activity change, negative = inhibition, %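 (about 20 µM by stock and volumes)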; AID 1259416, 2018; 69,000 compounds, 3.8% hits;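 active = below -70%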;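 note: host cells are HeLa cells infected with Toxoplasma gondii; parasite growth read as luciferase light; one replicate is shown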
# An asterisk follows results filed as active.
SMILES,Tg IFNy HTS
O=C(Cn1c(=O)ccc2cc(S(=O)(=O)N3CCCC3)ccc21)N1CC=C(c2ccccc2)CC1,-17
Cc1c(-c2nc(-c3ccc(C(C)(C)C)cc3)no2)sc2cc(C(C)(C)C)sc12,-29
CS(=O)(=O)N(Cc1ccco1)CC(O)CON=C1c2ccccc2-c2ccccc21 (stereo unspecified),-35
CCc1[nH]c2c(CNC(=O)CCn3c(C)cccc3=O)cc(F)cc2c1C,22
OC1=C(O)c2nc3cc(C(F)(F)F)ccc3nc21,27
c1csc(CN2CCCn3nnc(COCC4CC4)c3C2)c1,0
O=C(O)CC1CCC2(CC1)CCN(C(=O)c1ccccc1F)CC2,1
CN1C(=O)C2(NCCc3c2[nH]c2ccc(F)cc32)c2ccccc21 (stereo unspecified),103
Clc1cccc(CN2CCN(Cc3ccnn3-c3ccccc3)CC2)c1,-10
COc1cc2[nH]c(=O)[nH]c2cc1-n1cnnc1,-41
Cc1nc(CNC2CCN(Cc3ccccc3)CC2)nc2c1CCCC2,1
CN1CCOCC2(CCCN(C(=O)c3c[nH]c4ccccc34)C2)C1 (stereo unspecified),4
COCCC(=O)c1cc2c(c3ccccc3n2CC2CC2)n1-c1ncccn1,-2
CCC(=O)N1[C@H](CO)[C@H](c2ccc(C3=CCCC3)cc2)C12CN(C(=O)COC)C2,-6
Cc1cc(C(=O)Nc2ccccc2C(=O)N2CCCCC2)ccc1[N+](=O)[O-],12
COc1ccc(OCc2nc(Cc3nc(-c4cccc(C)c4)oc3C)no2)cc1,2
Cc1ccc(C(=O)N2C[C@H]3CN(c4cncnc4)C(=O)[C@H]3C2)o1,28
Cc1[nH]cc(Br)c(=O)c1OCC(=O)O,21
CCCCCCCCCCCCCCCCCCCCCC(=O)O,6
COc1ccc(C(=O)Oc2cc(N)n(S(=O)(=O)c3ccc(OC)cc3)n2)cc1,-4

# Compounds from the list above with fluorine, in the order listed:
SMILES,Tg IFNy HTS
CCc1[nH]c2c(CNC(=O)CCn3c(C)cccc3=O)cc(F)cc2c1C,22
OC1=C(O)c2nc3cc(C(F)(F)F)ccc3nc21,27
O=C(O)CC1CCC2(CC1)CCN(C(=O)c1ccccc1F)CC2,1
CN1C(=O)C2(NCCc3c2[nH]c2ccc(F)cc32)c2ccccc21 (stereo unspecified),103

# Next section:
SMILES,Tg IFNy HTS
Cn1cccc1C(=O)N1CC[C@H]2[C@@H]1CCN2S(C)(=O)=O,-41
Cc1ccc(NC(=O)c2nnn(Cc3nc(-c4cccc(Cl)c4)oc3C)c2C)cc1F,77
COc1ccccc1OCCn1cc(C(=O)C(F)(F)F)c2ccccc21,15
COCCN1CCC2(CC1)CN(c1ccccn1)CCO2,-35
CNC(=O)CC1CC2(CCN(C(=O)N3CCCC3)CC2)Oc2ccccc21 (stereo unspecified),-1
O=c1c2ccccc2ncn1CCc1n[nH]c(CCc2ccccc2)n1,9
Cc1ccc(N2CCCC3(CCN(CCN(C)C)C3=O)C2)nn1 (stereo unspecified),-3
OC1C[C@H]2CC[C@@H](C1)N2c1ncnc2[nH]ccc12 (stereo partly specified),-4
COc1ccc2c(c1)OC(C)(C)CC2N (stereo unspecified),0
COCCn1cnc(-c2nc(C(=O)N3CCCC3)c3ccccn23)c1,6
Cc1cc(CNC(=O)c2cc(C)n(C)n2)c(C(F)(F)F)o1,24
Cc1ccccc1NC(=O)c1c(O)c2cccnc2n(-c2ccccc2)c1=O,50
Cc1nc(C(=O)N2CC(Oc3c(C)cccc3C)C2)cs1,-1
CC(=O)N1CCN2CC(C(=O)O)CN(Cc3ccco3)CC2C1 (stereo unspecified),9
COc1ccc(OC)c(S(=O)(=O)NCCc2csc(-c3ccc(Cl)cc3)n2)c1,18
CC1CN(Cn2[nH]c(=O)ccc2=O)CC(C)O1 (stereo unspecified),8
COc1ccc2c3c([nH]c2c1)[C@H](CO)N(Cc1ccc(F)cc1)CC31CN(C)C1,286
Cc1cc(C)cc(N2CCC(NCC3CC(=O)N(C4CCCC4)C3)CC2)c1 (stereo unspecified),-12
Cc1oc(-c2ccc(NC(=O)c3cccc(F)c3)cc2)nc1Cn1cccn1,-87*
Cc1c(Cl)cccc1NC(=O)CC(=O)N(C)Cc1csc(C(C)C)n1,8
Clc1ccc(/C=C/c2nc3cc(-c4ccccc4)ccc3o2)cc1,6
CC(C)(C)/[N+]([O-])=C/c1ccc(S(=O)(=O)O)cc1S(=O)(=O)O,13
COc1cccc(CC2CN(C(=O)CCc3n[nH]c(C)c3C)CCO2)c1 (stereo unspecified),-8
CC(=O)N1[C@@H]2CN(C(=O)c3ccc(F)cc3)c3ccccc3[C@@H]2[C@@H]1CO,6
CCc1cnc(N2[C@H](C#N)[C@H](c3ccc(-c4cccc(F)c4)cc3)[C@H]2CO)s1,-59
C=CCN1Cc2nnn(CC)c2C(COCC(=O)N(C)C)C1 (stereo unspecified),-1
CCc1oc(C(=O)N(C)Cc2n[nH]c3c2CCC3)cc1CN1CCCC1,-6
Cn1c(CNC(=O)Cn2c(=O)cc(C(=O)N3CCCCC3)c3ccccc32)nc2ccccc21,13
CCCNC(=O)CSc1nnc(-c2cccnc2)n1C1CCCCC1,-13
CNC(=O)[C@]12CCC3(CCN(S(=O)(=O)C4CC4)CC3)[C@H]1CN(C(C)=O)C2,-1
CC(C)n1cnc(C2CN(C(=O)c3ccccn3)c3ccc(C(=O)N4CCCCC4)cc32)n1 (stereo unspecified),-6
COc1ccc(C2(CNCc3c(C(=O)N4CCCC4)nc4ccccn34)CCCC2)cc1,-11
CCOc1ccc(C(=O)O)cc1-c1ccc(C(=O)N(C)C)cc1,-6
O=C(c1cnccn1)N1CC(=O)N2[C@H](CO)[C@@H](c3ccc(-c4cccc(F)c4)cc3)[C@H]2C1,-53
CS(=O)(=O)N1CCc2ccc(NC(=O)CN3Cc4ccccc4C3)cc21,-3
Cc1ccc(C2(O)CCN(C(=O)[C@]34CC[C@](C)([C@@H](O)C3)C4(C)C)CC2)nc1,2
CCc1cc(C(=O)N2CCC(Cc3nn(C)cc3C(=O)Nc3ccc(F)cc3)CC2)on1,-30
CC(C)(C)c1cc2nc3c(c(=O)n2[nH]1)CN(Cc1ccccc1)C3=O,-39
Cc1onc(-c2ccccc2Cl)c1C(=O)Nc1sc2c(c1C#N)CCC2,42
Cc1ncc2c(c1CNCC1(O)CCCN(CC3CCC3)C1=O)CCNC2 (stereo unspecified),7
CN(C)C(=O)[C@@H]1CCS(=O)(=O)[C@H]2CN(C(=O)NCc3ccccc3)C[C@@H]12,7
CCOC(=O)c1ccccc1NC(=O)COc1nc(C)nc2ccccc12,6
CCC(C)(C)c1ccc(CC(C)CN2C[C@@H](C)O[C@@H](C)C2)cc1 (stereo partly specified),14
OCCOc1ccc(C2=NCCO2)cc1,80
C=CCN1CC(C(=O)N2CCCN(C)C3(CCN(C)CC3)C2)CC1=O (stereo unspecified),2
O=C(NCCc1csc(-c2ccc(Cl)cc2)n1)c1cccs1,-79*
COCC(=O)NC[C@@H]1[C@@H](c2ccccc2)[C@@H](CO)N1C(=O)c1ccccc1,-25
N[C@@H]1c2ccccc2C2(CCN(C(=O)Cc3ccc4c(c3)OCO4)CC2)[C@H]1O,2
Nc1ccc2c(c1)N(C(=O)c1cccnc1)CC2,29
COc1ccc(C[C@H]2CCn3cc(nn3)COC[C@H](C)NC2=O)cc1,-6
CCC(=O)N1CC2(C1)[C@H](c1ccc(-c3ccccc3C)cc1)[C@H](CO)N2C(=O)CC,47
COCCN(C)C(=O)c1ncn2c(C3CCN(C(=O)C4CCCC4)CC3)ccnc12,-1
CNC(=O)[C@@]12CCC3(CCN(C(=O)COC)CC3)[C@H]1CN(S(C)(=O)=O)C2,-1
Fc1ccc(-n2cc(CCCCN3CCC4(CC3)OCc3ccccc34)c3ccccc32)cc1,-76*
CCSc1nc(CC(=O)N2CCC[C@H]2CO)cs1,0
COc1ccc(C)cc1S(=O)(=O)NCCc1sc(-c2ccc(Cl)cc2)nc1C,89
COc1ccc(-c2ccc3[nH]nc(N)c3c2)cn1,-73*
C=CCN1CC[C@H]2[C@@H]1CCN2S(=O)(=O)Cc1ccccc1,5

# Structures listed so far that contain two or more sulfur atoms (six):
SMILES,Tg IFNy HTS
Cc1c(-c2nc(-c3ccc(C(C)(C)C)cc3)no2)sc2cc(C(C)(C)C)sc12,-29
COc1ccc(OC)c(S(=O)(=O)NCCc2csc(-c3ccc(Cl)cc3)n2)c1,18
CC(C)(C)/[N+]([O-])=C/c1ccc(S(=O)(=O)O)cc1S(=O)(=O)O,13
O=C(NCCc1csc(-c2ccc(Cl)cc2)n1)c1cccs1,-79*
CCSc1nc(CC(=O)N2CCC[C@H]2CO)cs1,0
COc1ccc(C)cc1S(=O)(=O)NCCc1sc(-c2ccc(Cl)cc2)nc1C,89

# Some values from above:
# For Tg IFNy HTS, Cc1oc(-c2ccc(NC(=O)c3cccc(F)c3)cc2)nc1Cn1cccn1 is listed with -87*
# For Tg IFNy HTS, COCCn1cnc(-c2nc(C(=O)N3CCCC3)c3ccccn23)c1 is listed with 6

# Of the compounds above, these have a CF3 group.
SMILES,Tg IFNy HTS
OC1=C(O)c2nc3cc(C(F)(F)F)ccc3nc21,27
COc1ccccc1OCCn1cc(C(=O)C(F)(F)F)c2ccccc21,15
Cc1cc(CNC(=O)c2cc(C)n(C)n2)c(C(F)(F)F)o1,24

# The list is partial, so the mix of outcomes need not match the whole.
